TRPML1 blocker = human mucolipin-1 channel inhibition; Q9GZU1; TRPML1-inducible cells, Ca2+ dye fluorescence, FDSS; hits give low values; inhibition of EC80 agonist-evoked calcium signal; activity change, negative = inhibition, % (no concentration beside the values); 390,000 compounds, 0.02% hits; in the data active means activity change below about -50%; inconclusive means about -30% to -50%; inactive means above about -30%;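 note: stimulus is agonist 54-4 at its EC80 concentration; % is set by controls: 0 for no effect and ±100 for the full control effect; compound concentration not given in the record; the text of the record puts the active cut at -80%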
Target sequence (Q9GZU1 whole entry, looked up): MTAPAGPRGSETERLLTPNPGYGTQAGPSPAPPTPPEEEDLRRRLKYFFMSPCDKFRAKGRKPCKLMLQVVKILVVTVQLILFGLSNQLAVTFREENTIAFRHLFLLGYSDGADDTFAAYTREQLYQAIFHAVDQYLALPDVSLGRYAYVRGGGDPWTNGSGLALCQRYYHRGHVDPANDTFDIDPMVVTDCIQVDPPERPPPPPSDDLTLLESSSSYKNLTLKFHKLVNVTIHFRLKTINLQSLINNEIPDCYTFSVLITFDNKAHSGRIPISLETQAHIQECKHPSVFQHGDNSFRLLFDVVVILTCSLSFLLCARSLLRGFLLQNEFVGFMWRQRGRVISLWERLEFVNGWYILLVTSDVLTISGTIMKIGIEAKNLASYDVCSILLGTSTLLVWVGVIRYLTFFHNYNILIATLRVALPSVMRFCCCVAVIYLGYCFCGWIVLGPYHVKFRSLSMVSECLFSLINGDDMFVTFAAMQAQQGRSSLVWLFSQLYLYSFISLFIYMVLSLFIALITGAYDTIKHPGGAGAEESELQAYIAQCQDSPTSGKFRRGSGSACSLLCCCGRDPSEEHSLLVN
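Calcium fluorescence in TRPML1-DL cells induced overnight with Tet: a 110 s read after compound pin addition, then a 110 s antagonist read after challenge with 54-4 at 4 uM final (EC80).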
gsp agonist = agonists of gsp mutant (McCune-Albright syndrome); AID 624287; gsp mutant cells, cAMP HTRF, 30 min; control for the full effect not named in the record; Potency, µM (highest dose often 76.9 µM), for the others: at the top dose activation (cAMP increase), usual class: activators; 340,000 compounds, 0.13% hits; active = well fitted activation curve with a large enough effect; inconclusive = small, poorly fitted or top-dose-only effect, or another doubt; inactive = no such curve, though single readings can be large or run the other way; cell line not stated here;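 note: phosphodiesterase inhibitor Ro 20-1724 added with compounds to block cAMP breakdown; potency is the fitted concentration of half-maximal effect; nearly all actives have a fitted effect of over 60% in size; about a fifth of the inactives were tested at one dose only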
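Cells stably selected in G418 were plated at 2000/well, grown 16-24 hr, then given compounds in DMSO with the PDE inhibitor […] (300 uM solution added) for 30 min at 37C; cAMP was read by HTRF.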
TRPML1 ag = agonists of human TRPML1 channel. TRPML1-expressing cells, Ca2+ dye fluorescence, FDSS; host cell line not named in the record; reference of the full effect not given here. activation, % (no concentration beside the values). 410,000 compounds, 0.12% hits. AID 624414; in the data active = activation above about 50%; inconclusive = about 30% to 50%; inactive = below about 30%; note: 0% is about no effect; the text of the record puts the active cut at 80%
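Tetracycline-induced TRPML1-DL cells are seeded and incubated overnight before loading with a no-wash Ca2+ dye and quencher. Agonist activity is taken from the 110 s fluorescence read following compound pin-transfer on an FDSS, before EC80 54-4 challenge.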
Menin-MLL FL inh = inhibitors of human menin-MLL interaction, wild-type MLL peptide; Fluorescence polarization, fluorescein-MLL peptide displacement from menin; FP activity change, % at 61.4 µM; 290,000 tested, under 10 active; AID 1766; inconclusive = falling polarisation curve, or a change in total fluorescence; inactive = total fluorescence flat and polarisation flat or rising; no compound was filed as active; the % refers to the polarisation; negative = inhibition;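 note: % of control where 0% means no effect; inhibitors lower the polarisation; unlabelled MLL peptide was the positive control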
gsp antagonist = gsp mutant antagonism. gsp-mutant cells, cAMP HTRF, 30 min; control for the full effect not named in the record. Potency, µM (highest dose often 76.9 µM), for the others: at the top dose activity change, negative = inhibition, usual class: inhibitors. 340,000 compounds, 0.4% hits; active = falling curve of any shape with a large fitted effect; inconclusive = falling curve, mostly with a smaller effect; inactive = flat or rising curve; cell line not stated here;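 note: intracellular cAMP measured with PDE inhibitor Ro 20-1724 present during compound exposure; potency is the fitted concentration of half-maximal effect; % is set by controls: 0 for no effect and ±100 for the full control effect; nearly all actives have a fitted effect of over 65% in size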
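Cells, 2000/well, grown 16–24 h in DMEM 10% FBS with 0.5 mg/ml G418, then compounds plus […] (300 uM addition stock), 30 min at 37C. cAMP read by HTRF (cAMP-d2 and anti-cAMP antibody-K in lysis buffer) after 30 min RT.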
ClpP mod = qHTS Assay for Activators of ClpP; AID 651965, 2013; 340,000 compounds, 1.9% hits; Potency, µM (top dose mostly 57.5 µM), for inactives: top-dose activity change, negative = active; purified B. subtilis ClpP, FRET peptide cleavage, 20 min; active = well fitted falling curve with a large enough effect; inconclusive = small, poorly fitted or top-dose-only effect; inactive = no such curve, though single readings can be large or run the other way; note: potency is the fitted concentration of half-maximal effect; the source files actives as falling curves though it sought activators and does not explain the sign; nearly all actives have a fitted effect of over 65% in size; many hits overshoot -100%
Target sequence (P80244 whole entry, looked up): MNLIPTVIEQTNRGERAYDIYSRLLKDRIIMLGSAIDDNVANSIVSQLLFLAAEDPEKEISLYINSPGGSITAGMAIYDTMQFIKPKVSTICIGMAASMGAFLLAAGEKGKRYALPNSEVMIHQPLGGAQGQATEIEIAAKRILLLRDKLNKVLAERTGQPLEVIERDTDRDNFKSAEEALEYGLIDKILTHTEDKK
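Buffer: 100 mM Tris/HCl pH8, 100 mM KCl, 0.05% low protease BSA, 2.5% glycerol, 0.01% Tween-20. ClpP 10 microg/mL final; 20 min RT; delta FRET normalized to ADEP and DMSO controls.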
* marks the source's active call; other numbers are inactive results; ? = inconclusive; / = no result given; & = joins results of further samples; [ ] = another dose, or the depositor's remark.

Below each SMILES – TRPML1 blocker	gsp agonist	TRPML1 ag	Menin-MLL FL inh	gsp antagonist	ClpP mod
> COc1ccc(NC(=O)CNC(=O)c2c(C)nn(C)c2Cl)cc1
 : 1	?	-0.2	2.4	11%	/
> COc1ccc(NC(=O)CSc2nnnn2C)cc1
 : 20	8%[15.4 µM]	-0.9	-1.6	11%	/
> N=c1c(C(=O)NCCN2CCOCC2)cc2c(=O)n3ccccc3nc2n1CCc1ccccc1
 : 9	8%[15.4 µM]	-0.5	/	7%	/
> Cc1cc2c(Nc3ccc(O)cc3)ncnc2s1
 : 5	-15%	0.8	-1.5	-6%	/
> Cc1ccc(-c2nnc(SCC(=O)CC(=O)Nc3ccccc3)n2-c2ccccc2)cc1
 : -9	18%	-0.4	4.4	?	-0.2%
> COc1ccc(N(C(=O)c2ccc(F)cc2)C2=CC3CCC(C2)N3C)cc1 (stereo unspecified)
 : -2	-41%[inhibitor]	-0.1	-0.3	4%	1.4%
> Cc1ccc2nc(N3CCN(c4cccc(Cl)c4)CC3)c(-n3nc(C)cc3C)nc2c1
 : 16	/	1.4	/	/	-15%
> COc1ccccc1NCCC(=O)OCC(=O)NC1CCCCCC1
 : -8	?	-0.9	-1.6	4%	0.8%
> COc1ccc(CCNC(=O)c2ccc(CN3CCC(Cc4ccccc4)CC3)cc2)cc1OC
 : -8	-55%[inhibitor]	-0.6	-0.5	13%	3.1%
> CCN(CC)S(=O)(=O)c1cc(NC(=O)C(C)N(C)CC(=O)Nc2c(C)cccc2C)ccc1C (stereo unspecified)
 : -1	6%	2.3	2.3	-22%	-8.3%
> CCC1=NN(C(=O)c2ccccc2[N+](=O)[O-])C(O)(c2ccccc2)C1 (stereo unspecified)
 : -1	-32%	-0.5	/	/	1.3%
> Cc1nc2cc(NS(=O)(=O)c3ccccc3F)ccc2s1
 : /	-1%	/	2.5	7%	-0.5%
> Cc1ccc2c(c1)NC(=O)C(CC(=O)Nc1ccc(CN3CCC(C)CC3)cc1)O2 (stereo unspecified)
 : 16	-66%[inhibitor]	1.0	4.9	13%	-5.6%
> CCOc1ccc2nnc(-c3ccc(Br)cc3)n2n1
 : -14	21%	0.1	0.7	-23%	-3.0%
> O=C(NNc1cc(Br)c(O)c(Br)c1)c1ccccc1
 : 14	5%[15.4 µM]	0.6	-7.7	0%	/
> CCN(CC(=O)NCCN1CCOCC1)S(=O)(=O)c1ccc(F)cc1
 : -5	-21%[15.4 µM]	1.2	-5.4	3%	/
> COc1ccc(-c2cc(C#N)nc(N3CCNCC3)n2)cc1
 : 0	-31%[inhibitor]	-0.1	3.0	0%	-5.8%
> O=C(N/N=C/c1ccc(OCc2ccc(F)cc2)cc1)c1ccccc1
 : 8	-6%	1.6	4.5	7%	1.6%
> COc1ccccc1C1=NOC(CN2C(=O)c3ccccc3S2(=O)=O)C1 (stereo unspecified)
 : -8	14%	0.5	6.3	1%	-2.9%
> CCc1ccc(-c2nn(-c3ccc(OC)cc3)c3c2cnc2ccc(OC)cc23)cc1
 : 2	/	2.8	/	/	?

(continued)
Below each SMILES – TRPML1 blocker	gsp agonist	TRPML1 ag	Menin-MLL FL inh	gsp antagonist	ClpP mod
> S=C(NCc1ccco1)Nc1ccccc1Cl
 : 4	0%	-0.8	1.3	10%	0.0%
> Cc1c(C(=O)N2CCCCC2)sc(N)c1C#N
 : 17	-44%[inhibitor]	-0.5	-2.8	5%	-0.6%
> Cc1cc(C)c(S(=O)(=O)Nc2cccc(S(=O)(=O)N3CCOCC3)c2)c(C)c1
 : -22	?	-0.1	/	2%	-0.6%
> COc1ccc(NS(=O)(=O)c2ccc(NC(=S)NC(=O)CC(C)C)cc2)cc1
 : -26	-7%	5.4	1.4	11%	-0.3%
> Cc1c(C(=O)Nc2ccccc2)sc2nc(-c3cc4ccccc4oc3=O)[nH]c(=O)c12
 : 27	/	-0.1	/	/	-2.1%
> COCCNC(=O)C(c1ccc(O)cc1)N(Cc1ccco1)C(=O)CCC(=O)Nc1nccs1 (stereo unspecified)
 : 41	3%	-0.8	-0.7	7%	2.0%
> COC(=O)CN1C(=O)Nc2ccc(Cl)cc2C1c1ccccc1 (stereo unspecified)
 : -4	-22%	1.4	-1.2	-8%	-3.7%
> O=C1CN(c2nc(-c3cccnc3)nc3scc(-c4ccccc4)c23)CCN1
 : -17	-4%[15.4 µM]	-0.4	-1.0	0%	/
> COc1ccc(CCNC(=S)N2CCN(S(=O)(=O)c3ccccc3F)CC2)cc1
 : 8	-2%	0.2	/	-18%	1.1%
> COC(=O)c1ccc(Cn2nnc3c(=O)[nH]c(C4CCCN(S(=O)(=O)c5ccccc5Cl)C4)nc32)cc1 (stereo unspecified)
 : 0&-15	21%	-0.8&-0.1	/	3%	-0.1%&3.2%
> Cc1cccc2cc(C#N)c(SCCN3CCCCC3)nc12
 : 50	-1%	0.9	/	-10%	-4.4%
> Cc1ccc(C)c(S(=O)(=O)NCC(c2ccco2)N2CCc3ccccc3C2)c1 (stereo unspecified)
 : 21	5%[15.4 µM]	-0.3	/	-14%	/
> CC(SC#N)C(=O)C12CC3CC(CC(C3)C1)C2 (stereo unspecified)
 : 3	12%	-0.7	-5.7	1%	/
> COCCn1nnnc1C(c1cccc(C#N)c1)N1CCCCCC1 (stereo unspecified)
 : -4	-62%[inhibitor]	0.5	1.2	-11%	0.8%
> COc1ccc(-n2c(Cc3cc(=O)[nH]c(=O)[nH]3)nnc2SCC(=O)N2CCCC2)cc1
 : -2	-8%	-0.1	-6.3	12%	-13%
> COc1ccc(CNC(=O)C2CCN(S(=O)(=O)N3CCCC3)CC2)cc1
 : 37	1%	-0.7	/	1%	-1.0%
> O=C(CNC(=O)c1ccc(-c2ccccc2)cc1)OCc1c(Cl)cccc1Cl
 : 4	?	0.7	2.6	-8%	-2.8%
> CCOC(=O)C1=C(CN2CCN(C(=O)c3ccco3)CC2)NC(=O)NC1c1ccc(F)cc1 (stereo unspecified)
 : -17	-18%	1.6	/	3%	0.4%
> O=C(O)c1ccc(S(=O)(=O)c2ccccc2C(=O)O)c([N+](=O)[O-])c1
 : -1	6%	-0.4	-22	12%	/
> Cc1ccc(NC(=O)N2CCC(CN3CCCCCC3)CC2)c(Cl)c1
 : -7	/	1.2	/	/	1.2%

Next records.
Below each SMILES – TRPML1 blocker	gsp agonist	TRPML1 ag	Menin-MLL FL inh	gsp antagonist	ClpP mod
> CC(C)S(=O)(=O)c1csc(NC(=O)Nc2cc(Cl)ccc2Cl)c1Cl
 : -6	2%[15.4 µM]	-0.2	3.8	-37%	0.2%
> CC1=C(C(=O)N(C)C)CC(CC(=O)NCC2CCCCC2)C(=O)N1Cc1ccc(C(C)(C)C)cc1 (stereo unspecified)
 : 1	0%	-0.5	/	/	-1.6%
> CCOc1cc(-c2ccc(OC(=O)c3ccccc3)c(OC)c2)cc(=O)c2c(C)oc(C)c12
 : 33	/	0.4	/	/	1.5%
> COc1ccc(CCNC(=O)C(=O)c2cn(CC(=O)N3CCOCC3)c3ccccc23)cc1
 : -2	-3%	-0.6	/	-8%	/
> Cc1cc(C)n2c(Nc3ccccc3C)c(-c3cccs3)nc2n1
 : -7	/	-1.1	/	/	-6.0%
> COc1ccccc1N1CCN(CC(=O)c2c(C)[nH]c3cc(C)ccc23)CC1
 : 18	-27%	-0.1	2.3	1%	1.6%
> Cc1ccc(S(=O)(=O)Nc2ccccc2-c2ccccc2NS(=O)(=O)c2ccc(C)cc2)cc1
 : 4	-3%	4.7	1.5	40µM*	0.5%
> CCN(C(=O)CSc1nc2ccc(C)cc2[nH]1)C1CCS(=O)(=O)C1 (stereo unspecified)
 : 6	?	1.5	/	7%	0.4%
> COC(=O)CCCCCN1C(=O)NC(c2ccccc2)C(C(=O)OCc2ccccc2)=C1C (stereo unspecified)
 : 32	/	2.6	0.4&0.4	-22%	-7.1%
> COc1ccc(S(=O)(=O)N(CC(=O)NC2CC2)C2CCCCC2)cc1Cl
 : 9	6%	-0.3	0.6	-1%	-2.3%
> CCOC(=O)C1=C(COC(=O)/C=C/c2cccc(OC)c2OC)NC(=O)NC1C (stereo unspecified)
 : 10	?	8.4	-2.0	4%	-3.5%
> O=c1oc(Cc2ccccc2)nc2ccccc12
 : 15	-18%	1.4	0.5	-9%	-18%
> CC(CN1C(C)CCCC1C)OC(=O)c1ccc(Cl)cc1 (stereo unspecified)
 : 16	10%	0.3	-8.4	3%	-0.9%
> CCOc1ccc(S(=O)(=O)Nc2ccc(C(=O)NCCCN3CCCC3=O)cc2)cc1
 : 6	-21%	0.3	/	6%	-1.7%
> CCN(c1nc(C)cc(OC)n1)S(=O)(=O)c1ccccc1
 : 22	26%	2.1	1.6	-18%	0.2%
> O=C(Nc1nc2ccccc2[nH]1)C1CCCO1 (stereo unspecified)
 : 11	1%	-0.1	3.9	1%	0.6%
> CCc1nnc(NC(=O)c2ccc(S(=O)(=O)N3CCc4ccccc4C3)cc2)s1
 : -17	8%	-0.1	0.9	8%	-1.5%
> O=C(NC1CC(=O)N(c2ccc(Cl)cc2)C1)c1ccc(S(=O)(=O)N2CCCC2)cc1 (stereo unspecified)
 : -18	/	2.2	/	/	3.4%
> O=C(O)c1ccc(/C=C2\COc3ccccc3C2=O)cc1
 : 10	-23%[15.4 µM]	0.5	2.3	-17%	/

Structures listed above shown as hits in gsp antagonist.
SMILES	TRPML1 blocker	gsp agonist	Menin-MLL FL inh	gsp antagonist
Cc1ccc(S(=O)(=O)Nc2ccccc2-c2ccccc2NS(=O)(=O)c2ccc(C)cc2)cc1	4	-3%	1.5	40µM*

Some of these compounds in order of the Menin-MLL FL inh value, rising:
smiles	Menin-MLL FL inh
CCOC(=O)C1=C(COC(=O)/C=C/c2cccc(OC)c2OC)NC(=O)NC1C (stereo unspecified)	-2.0
Cc1ccc(S(=O)(=O)Nc2ccccc2-c2ccccc2NS(=O)(=O)c2ccc(C)cc2)cc1	1.5
COc1ccccc1N1CCN(CC(=O)c2c(C)[nH]c3cc(C)ccc23)CC1	2.3
Cc1ccc(-c2nnc(SCC(=O)CC(=O)Nc3ccccc3)n2-c2ccccc2)cc1	4.4
COc1ccccc1C1=NOC(CN2C(=O)c3ccccc3S2(=O)=O)C1 (stereo unspecified)	6.3

High-throughput results from PubChem.
